Source: PubChem BioAssay
Mtb growth: Mycobacterium tuberculosis H37Rv growth inhibition, cell based, confirmatory dose response (AID 1949). most inactive calls were filed without a number and no value below 0 was filed. 100,000 tested, 1.6% active. inhibition, % at 10 µg/mL; hits with a dose series show IC50 in µg/mL;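 active = confirmed in a dose series; inconclusive = about 50% or more but not retested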;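 note: bacteria grown 7 days with compound before Alamar blue readout; 0% = untreated bacteria and 100% = reference antibiotic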
Starred values were filed as active, the others as inactive; i = inactive; ? = inconclusive.

SMILES | Mtb growth
COc1cc(Br)cc(C2NC(=S)NC(C)=C2C(=O)N(C)C)c1OC (stereo not drawn) | i
CCOC(=O)C1CCc2sc(N)c(C#N)c21 (stereo not drawn) | i
Cc1ccc(C(=O)ON2C(=O)c3ccccc3C2=O)cc1C | 1%
CCSc1nnc(NC(=O)c2cc3c(s2)CCCC3)s1 | i
Cc1ccc(C(=O)N2CCN(CCNC(=O)C(=O)Nc3ccc(Br)cc3)CC2)cc1 | i
Cc1ccccc1C(=O)N1CCN(c2ccc(NC(=O)c3cccc(I)c3)cc2)CC1 | 27%
CS(=O)(=O)N(CC(=O)Nc1ccc(S(=O)(=O)N2CCOCC2)cc1)c1cccc([N+](=O)[O-])c1 | i
Cc1nnc(SCC(=O)c2ccc3c(c2)OCCO3)s1 | 7%
CC(C)c1ccc(NC(=O)C2CCN(C(=O)c3cccs3)CC2)cc1 | i
COc1cc(C2NC(=O)NC(C)=C2C(C)=O)cc(Cl)c1O (stereo not drawn) | i
CC(C)(C)c1ccc(S(=O)(=O)NCC(=O)Nc2ccc3c(c2)OCCO3)cc1 | i
Cc1ccccc1NC(=S)N1CC(C)OC(C)C1 (stereo not drawn) | i
CCN(CC)C(=O)C1CCN(S(=O)(=O)c2ccccc2)CC1 | 10%
Cc1ccc(NC(=S)c2ccccn2)cc1 | 0.99µg/mL*
CCCc1cc(=O)[nH]c(SCC(=O)NCc2ccc3c(c2)OCO3)n1 | 2%
N#Cc1c(C(F)(F)F)cc(C2CC2)nc1SCc1cccc(F)c1 | 9%
CCOc1ccc(NC(=O)Nc2ccc(C)cc2Br)cc1 | i
O=C(CSc1nc2ccc(I)cc2c(=O)[nH]1)N1CCCCC1 | i
Clc1cccc(Cl)c1CNCC1CCCO1 (stereo not drawn) | i
COc1ccc(CNC(=O)COc2cc(C)c(Br)c(C)c2)cc1 | i
O=C(C1CCCO1)N1CCC2(CC1)OCCO2 (stereo not drawn) | i
COc1ccc2c(c1)c(=O)oc1c(CN(C)C)c(O)ccc12 | 4%
COc1ccc(C(C)=O)cc1CSc1nnc(-c2ccccc2O)n1-c1ccccc1 | i
Cc1cc2c(C)nc3ccccc3c2o1 | 19%
O=C(Nc1ccccc1-c1ccccc1)c1ccc2c(c1)OCO2 | i

The list continues.
SMILES | Mtb growth
CN(CC(=O)Nc1ccccc1-c1ccccc1)S(=O)(=O)c1cc(Cl)ccc1Cl | i
COc1ccc(C2NC(=S)NC(C)=C2C(=O)Nc2ccc(C)c(C)c2)c(OC)c1 (stereo not drawn) | i
Fc1ccc(CCNC(=S)NCC2CCCO2)cc1 (stereo not drawn) | i
CCn1c(SCC(=O)c2ccccc2)nc2ccccc2c1=O | 3%
CCCC(=O)Nc1ccc(Cl)c(NC(=O)COc2ccc(C(C)(C)C)cc2)c1 | i
O=C(Nc1ccc(OCc2ccccc2)cc1)c1ccc(CN2CCc3ccccc3C2)cc1 | i
CC(=O)Nc1ccc2nc(NC(=O)C(C)Oc3ccc(Cl)cc3Cl)oc2c1 (stereo not drawn) | ?
CC1CCN(S(=O)(=O)c2ccc(NC(=O)c3ccccc3I)cc2)CC1 | i
Cc1ccc(NC(=O)C(=O)NCCN2CCN(C(=O)c3ccc(Br)cc3)CC2)cc1Cl | i
Cc1ccc(S(=O)(=O)N(CC(=O)NCc2ccco2)Cc2ccc(F)cc2)cc1 | 1%
CC(C)(C)Cc1nnc(NS(=O)(=O)c2ccc([N+](=O)[O-])cc2)s1 | 17%
c1ccc(-c2n[nH]c(-c3ccccn3)n2)nc1 | ?
COc1c(Cl)cc(Cl)cc1C(=O)NC(=S)Nc1cccc(C(C)=O)c1 | 4%
O=C(Nc1cccnc1)C1(c2ccc(Cl)cc2)CCCC1 | 0%
CCc1ccc(CC)c(S(=O)(=O)Nc2ccc(I)cc2)c1 | i
COc1ccccc1NC(=O)c1cc(C(N)=O)c(SCC(=O)c2ccccc2)nc1N | i
N#Cc1cc2c(nc1SCC(N)=O)CCCCC2 | i
COc1ccc(C)cc1S(=O)(=O)NC(C)c1ccccc1 (stereo not drawn) | 5%
Cc1ccc(-c2nnc3c4ccccc4c(C)nn23)cc1S(=O)(=O)N(C)CCO | i
CCC(C)c1ccc(OCC(=O)Nc2ccc3c(c2)C(=O)NC3=O)cc1 (stereo not drawn) | 4%
COc1ccc(CNc2ccccc2[N+](=O)[O-])cc1 | 4%
CNc1cc(N2CCN(C(=O)C(C)(C)C)CC2)ccc1[N+](=O)[O-] | i
CN1CCN(C(=S)NCC2CCCO2)CC1 (stereo not drawn) | i
COc1ccc(OC)c(NC(=S)NCCCN2CCOCC2)c1 | i
COc1ccccc1C(=O)N1CCN(c2ccc(Cl)cc2)CC1 | i

Next section
SMILES | Mtb growth
Cc1c(-n2c(-c3ccccc3)nc3ccccc3c2=O)c(=O)n(-c2ccccc2)n1C | i
CCOc1ccc(N2CC(=O)N(Cc3ccccc3)C2=S)cc1 | 44%
CCN(CC)C(=O)c1ccc(-c2ccccc2)cc1 | 6%
COC(=O)COc1ccc(NC(=O)COc2ccc(C)cc2C)cc1 | <0.1µg/mL*
CC(=O)c1cccc(NC(=O)N2CCN(C(c3ccccc3)c3ccccc3)CC2)c1 | i
COc1ccccc1Oc1coc2cc(OC(=O)c3cccs3)ccc2c1=O | i
CCOC(=O)c1ccc(NC(=O)c2cc3c(n(-c4ccc(Cl)cc4)c2=O)CCCC3=O)cc1 | i
COc1cc(C)c(S(=O)(=O)n2c(C)nc3ccccc32)cc1C | i
COc1ccc(C(=O)NCCC(c2ccccc2)c2ccccc2)cc1OC | i
Nc1c2c3c(sc2nc(=O)n1Cc1ccco1)CCC3 | i
CCCC(=O)Nc1cccc(NC(=O)CCc2ccccc2)c1 | 1%
CCOc1ccc(CC(=O)NNC(=S)Nc2ccc(Br)cc2Cl)cc1OCC | i
CCOC(=O)c1cc2ccccc2n1CC#N | i
CCOc1cc(C2CC(=O)NC(SCC(=O)Nc3cccc(F)c3)=C2C#N)ccc1O (stereo not drawn) | i
CCOC(=O)c1c(C)n(CC)c2ccc(O)cc12 | i
COCCCNC(=S)N1CCCC1 | 1%
Cc1ccc(-c2csc3ncn(Cc4cccc(Cl)c4)c(=O)c23)cc1C | 1%
Cc1sc(NC(=O)c2cccc3ccccc23)c(C(N)=O)c1C | i
O=C(Nc1ccc(NC(=O)c2ccc(Br)o2)cc1Cl)c1ccco1 | i
Cc1nnc(Nc2ccc(O)cc2)c2ccccc12 | ?
O=S(=O)(Nc1nc2ccccc2nc1Nc1ccccc1F)c1ccccc1 | i
Cc1nn(-c2ccccc2)c2sc(C(=O)NC(=S)NCCc3ccccc3)cc12 | i
COC(=O)c1c(NC(=O)c2ccoc2C)sc2c1CCC2 | i
O=C(CCC1CCCCC1)NCCCCNC(=O)CCC1CCCCC1 | i
COC(=O)c1sc(NC(=O)c2c(F)cccc2F)c(C#N)c1C | i

As a short view, part of the list above:
SMILES | Mtb growth
COc1ccccc1Oc1coc2cc(OC(=O)c3cccs3)ccc2c1=O | i
CCOC(=O)c1ccc(NC(=O)c2cc3c(n(-c4ccc(Cl)cc4)c2=O)CCCC3=O)cc1 | i
COc1cc(C)c(S(=O)(=O)n2c(C)nc3ccccc32)cc1C | i
COc1ccc(C(=O)NCCC(c2ccccc2)c2ccccc2)cc1OC | i
Nc1c2c3c(sc2nc(=O)n1Cc1ccco1)CCC3 | i
CCCC(=O)Nc1cccc(NC(=O)CCc2ccccc2)c1 | 1%
CCOc1ccc(CC(=O)NNC(=S)Nc2ccc(Br)cc2Cl)cc1OCC | i
CCOC(=O)c1cc2ccccc2n1CC#N | i
CCOc1cc(C2CC(=O)NC(SCC(=O)Nc3cccc(F)c3)=C2C#N)ccc1O (stereo not drawn) | i
CCOC(=O)c1c(C)n(CC)c2ccc(O)cc12 | i
COCCCNC(=S)N1CCCC1 | 1%
Cc1ccc(-c2csc3ncn(Cc4cccc(Cl)c4)c(=O)c23)cc1C | 1%
Cc1sc(NC(=O)c2cccc3ccccc23)c(C(N)=O)c1C | i
O=C(Nc1ccc(NC(=O)c2ccc(Br)o2)cc1Cl)c1ccco1 | i
Cc1nnc(Nc2ccc(O)cc2)c2ccccc12 | ?
O=S(=O)(Nc1nc2ccccc2nc1Nc1ccccc1F)c1ccccc1 | i
Cc1nn(-c2ccccc2)c2sc(C(=O)NC(=S)NCCc3ccccc3)cc12 | i
COC(=O)c1c(NC(=O)c2ccoc2C)sc2c1CCC2 | i
O=C(CCC1CCCCC1)NCCCCNC(=O)CCC1CCCCC1 | i
COC(=O)c1sc(NC(=O)c2c(F)cccc2F)c(C#N)c1C | i

Remaining list, next part
SMILES | Mtb growth
Cc1ccc(Cl)c(OCCCCOc2ncnc3ccccc23)c1 | 8%
O=C(O)c1ccc(NS(=O)(=O)c2ccccc2C(F)(F)F)cc1 | i
COc1cccc(NC(=S)NCCN(C)C)c1 | i
Cc1ccc(NC(=O)c2ccoc2C)nc1 | i
COc1cc(NC(=O)c2ccco2)ccc1NC(=O)c1ccccc1Cl | ?
O=C(Oc1ccc2c(=O)c(-c3ccc(Cl)cc3)coc2c1)c1ccccc1F | i
O=C(Nc1cccc(NC(=O)c2ccco2)c1)c1ccc2c(c1)OCCO2 | i
Cn1c(=O)c2c(ncn2CC(O)CNc2ccc(Cl)cc2)n(C)c1=O (stereo not drawn) | i
COc1ccccc1C(=O)Nc1cccc(C#N)c1 | i
Cc1cc(Cl)ccc1OC(C)C(=O)Nc1ccccc1C(N)=O (stereo not drawn) | 14%
COc1cc(C(=O)Nc2cccc(Cl)c2Cl)ccc1OCc1ccc(Cl)cc1 | 3%
CCOc1ccccc1N1C(=O)CC(Sc2nc(C)c3cc(OC)ccc3n2)C1=O (stereo not drawn) | i
CC(C)COc1ccc(CC(=O)NCc2ccccc2)cc1Cl | 1%
Cc1cc(Cl)ccc1NC(=O)C1CCCCC1 | 1%
Cc1nnc(Nc2ccc(Cl)c(Cl)c2)[nH]c1=O | i
Cc1cc(C)cc(OC(=O)CCN2C(=O)C3C4C=CC(C5CC45)C3C2=O)c1 (stereo not drawn) | 49%
CCc1c(C(=O)NCc2ccc(OC)c(OC)c2)csc1C | 4%
CCOc1cccc(C(=O)N(Cc2ccc(N(C)C)cc2)C2CCS(=O)(=O)C2)c1 (stereo not drawn) | 1%
O=C(NC(=S)Nc1ccc2nn(-c3ccc(Cl)cc3)nc2c1)c1ccco1 | i
Cc1ccc(SCC(=O)Nc2ccccc2C(=O)N2CCOCC2)cc1 | i
Cc1ccc(/C=C/C(=O)Nc2ncc(Cc3cccc(C)c3)s2)cc1 | i
COc1ccc(-c2cc(C(F)F)n3ncc(C(=O)Nc4cc(C)on4)c3n2)cc1 | i
CCC(C)N(C(=O)c1cccc(OC)c1)C(C)CC (stereo not drawn) | i
Cc1ccccc1C(=O)Nc1ccc(O)cc1C(=O)O | 3%
CC(C(=O)NC(c1ccccc1)c1ccccc1)c1ccccc1 (stereo not drawn) | 2%

Following part:
SMILES | Mtb growth
COc1ccc(CCNC(=S)NN2CCN(C)CC2)cc1OC | i
CCN(CC)c1cc(N)c([N+](=O)[O-])cc1F | i
CCCCOC(=O)Oc1ccc2c(=O)c(-c3ccccc3Cl)coc2c1 | 3%
O=C(NC(=S)Nc1ccc(CN2CCCCC2)cc1)c1ccco1 | i
Cc1ccc(NS(=O)(=O)c2ccc(NS(=O)(=O)c3ccc4c(c3)OCCO4)cc2)cc1 | i
O=c1cc(-c2cccc3ccccc23)[nH][nH]1 | i
CCOC(=O)N1CCN(C(=O)c2cc(Br)ccc2Cl)CC1 | i
Cc1cccc(N/C(=N\S(=O)(=O)c2ccc(F)cc2)c2ccccc2)c1 | i
CCOc1ccc(OCC)c(S(=O)(=O)Nc2ccc(F)cc2)c1 | i
Cc1ccc(C)c(NC(=O)c2ccc(Nc3nnc(C)c4ccccc34)cc2)c1 | 38%
Cc1cc(NC(=O)COc2ccc(C)c(C)c2)no1 | i
Cc1nc2sc3c(c2c(=N)n1N)CC(C)(C)OC3 | i
C=CCc1cccc(C)c1OCCN(CC)CC | i
CCOCCCNC(=O)Nc1cccc(Cl)c1 | i
O=S(=O)(Nc1ncccn1)c1ccc(NC(=S)N2CCN(c3ccc(Cl)c(Cl)c3)CC2)cc1 | i
CCOc1cc(-c2nc(Cc3ccc(Cl)cc3Cl)no2)cc(OCC)c1OCC | i
O=C(NCCc1ccccc1)c1ccccc1NS(=O)(=O)c1ccc(Br)s1 | i
CCOc1ccc(C(=O)n2nnc3ccccc32)cc1 | i
COC(=O)c1ccc(Cn2cnc3sc(-c4ccccc4)cc3c2=O)cc1 | i
NC(=O)c1ccc(-n2nnnc2Oc2ccc3ccccc3c2)cc1 | i
CCCCC(=O)Nc1ccc(C(=O)Nc2ccccc2OCC)cc1 | i
COc1cc(C2C(C(=O)OCCOC(C)C)=C(C)NC3=C2C(=O)CC(C)(C)C3)cc(Br)c1O (stereo not drawn) | i
CCOc1ccc(OCc2cccc(C(=O)OCC3CCCO3)c2)cc1 (stereo not drawn) | i
COc1ccc(C)cc1NC(=O)C1CCN(S(=O)(=O)c2ccccc2)CC1 | 0%
Cc1ccc(OCC(O)CN2CCN(CC(O)COc3ccc(C)cc3C)CC2)c(C)c1 (stereo not drawn) | 3.3µg/mL*

Next section:
SMILES | Mtb growth
O=C(c1cc(F)c(F)cc1Cl)N1CCN(c2ccc(F)cc2)CC1 | 0%
CC(=O)NS(=O)(=O)c1ccc(NC(=S)NC(=O)c2ccc(Cl)cc2)cc1 | i
CCOc1cc(C2CC(=O)Nc3cc4c(cc32)OCO4)ccc1OC(=O)C1CCCCC1 (stereo not drawn) | i
COc1ccc(-c2cc(C(F)(F)F)n3nc(C(=O)Nc4cccc(C(C)=O)c4)c(Cl)c3n2)cc1OC | i
Cc1cc(Cl)ccc1OCCCC(=O)N(CCC#N)CCC#N | i
Cn1c(=O)c2c(nc(SCC(=O)Nc3ccc(N4CCOCC4)c(Cl)c3)n2C)n(C)c1=O | i
CC(=O)c1cccc(NC(=S)NCc2ccc(S(N)(=O)=O)cc2)c1 | i
CCOC(=O)CCc1c(C)c2ccc(OCc3ccc(F)cc3)cc2oc1=O | i
COc1cccc(OCC(=O)Nc2ccc(-c3nc4ccccc4o3)cc2)c1 | i
COC(=O)c1cc(C)sc1NC(=S)Nc1ncn(Cc2ccc(F)cc2Cl)n1 | i

This is a subset; count on the stated rates, not on these rows.
